# D2 agonist – agonists of human D2 dopamine receptor (beta-arrestin); 360,000 tested, 0.084% active; activation, % (test concentration not listed); DiscoveRx PathHunter D2 beta-arrestin, luminescence, 90 min; 100% = 57 uM dopamine signal; P14416; in the data active = activation above about 40%; inconclusive = about 15% to 40%; inactive = below about 15%; also: compound concentration not given in the record; the text of the record calls up to 30% inactive
#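 Agonist mode: compounds alone added to overnight-plated D2 PathHunter cells for 90 min at 37 C, with 57 uM final dopamine (EC100) defining full response. Beta-arrestin recruitment detected by chemiluminescent reagent, read after 1 h at ambient temperature.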
# TRPML1 agonist – agonists of human TRPML1 channel. Q9GZU1. TRPML1-expressing cells, Ca2+ dye fluorescence, FDSS; host cell line not named in the record; reference of the full effect not given here. activation, % (concentration not given with the values). 410,000 tested, 0.12% active. AID 624414; in the data active = activation above about 50%; inconclusive = about 30% to 50%; inactive = below about 30%; also: 0% is about no effect; the text of the record puts the active cut at 80%
#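 Tetracycline-induced TRPML1-DL cells are seeded and incubated overnight before loading with a no-wash Ca2+ dye and quencher. Agonist activity is taken from the 110 s fluorescence read following compound pin-transfer on an FDSS, before EC80 54-4 challenge.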
# Six1-Eya2 inh – Six1/Eya2 interaction inhibition | AlphaScreen GST-Six1/His-Eya2 binding, biochemical; active compounds read low; control for the full effect not named in the record | activity change, % (test concentration not listed) | 360,000 tested, 0.56% active | AID 651725; in the data active = activity change below about -65%; inconclusive = about -30% to -65%; inactive = above about -30%; also: % is scaled to controls: 0 for no effect and ±100 for the full control effect
# Target sequence (O00167 whole entry, looked up): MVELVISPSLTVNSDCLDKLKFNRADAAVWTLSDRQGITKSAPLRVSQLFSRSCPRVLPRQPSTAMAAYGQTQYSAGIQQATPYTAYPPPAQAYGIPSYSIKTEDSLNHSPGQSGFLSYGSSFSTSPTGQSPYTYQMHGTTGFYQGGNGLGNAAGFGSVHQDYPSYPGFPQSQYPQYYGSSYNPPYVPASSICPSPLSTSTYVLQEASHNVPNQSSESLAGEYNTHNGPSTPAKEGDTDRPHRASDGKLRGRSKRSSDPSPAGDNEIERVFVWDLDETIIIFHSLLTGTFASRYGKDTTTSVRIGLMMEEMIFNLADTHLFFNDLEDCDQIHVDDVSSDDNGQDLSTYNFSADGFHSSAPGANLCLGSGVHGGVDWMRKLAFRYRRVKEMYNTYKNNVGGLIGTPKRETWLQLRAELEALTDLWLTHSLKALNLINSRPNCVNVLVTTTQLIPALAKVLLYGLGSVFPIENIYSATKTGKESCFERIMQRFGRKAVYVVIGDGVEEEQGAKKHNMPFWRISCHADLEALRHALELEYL
# Target sequence (Q15475 whole entry, looked up): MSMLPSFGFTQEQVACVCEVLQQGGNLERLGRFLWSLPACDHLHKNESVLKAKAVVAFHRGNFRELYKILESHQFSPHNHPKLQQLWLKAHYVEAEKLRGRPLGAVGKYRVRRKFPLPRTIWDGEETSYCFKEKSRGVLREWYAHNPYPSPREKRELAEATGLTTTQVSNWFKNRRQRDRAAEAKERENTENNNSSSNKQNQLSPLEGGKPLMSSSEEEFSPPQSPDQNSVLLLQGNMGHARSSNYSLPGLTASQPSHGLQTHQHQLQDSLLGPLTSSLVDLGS
#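 Homogeneous AlphaScreen proximity assay pairing GST-Six1 with His-tagged Eya2 (added as 5X mix: 250 nM and 500 nM) in 50 mM Tris pH 8.0, 300 mM NaCl, 1 mM TCEP. Glutathione donor and nickel acceptor beads; 1 h, 37 °C, dark.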
# D2 potentiator – human D2 receptor positive allosteric modulation. P14416. potentiation, % (test concentration not listed). 360,000 tested, 0.23% active. DiscoveRx D2 beta-arrestin cells, luminescence, 90 min; 100% = 57 uM dopamine signal; active = potentiation of 50% or more; inconclusive = 30% to 50%; inactive = 30% or less;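 also: compound concentration not given in the record; tested on top of an EC20 dose of dopamine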
#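 PathHunter D2 cells, attached overnight at 37 deg C, received compound in DMSO plus dopamine at EC20 (50 nM final) for 90 min at 37 deg C. Beta-arrestin recruitment was read as luminescence after 1 h with detection reagent at ambient temperature.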
# PINK1 modulator – PINK1 expression modulation; 410,000 tested, 0.2% active; PINK1 immunofluorescence, high-content cytometry, 24 h; Potency, µM (series often up to 76.6 µM), for inactives: top-dose activation (PINK1 increase), hits mostly activators; active = well fitted activation curve with a large enough effect; inconclusive = small, poorly fitted or top-dose-only effect; inactive = flat fitted curve, though single readings scatter; cell line not stated here;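 also: potency is read from the fitted curve at half-maximal effect; % of control where 0% means no effect; nearly all actives have a fitted effect of over 65% in size; a mitochondrial uncoupler was the plate control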
#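 Compound titrations (5 concentrations, 24 h) on a stable cell line; DMSO and CCCP controls. Endpoint: fixed-cell PINK1 immunofluorescence with mitochondrial, cell and nuclear markers, scanned by microplate cytometer.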
# TRPML1 inh – human mucolipin-1 channel inhibition; 390,000 tested, 0.02% active; Q9GZU1; activity change, negative = inhibition, % (test concentration not listed); TRPML1-inducible cells, Ca2+ dye fluorescence, FDSS; active compounds read low; inhibition of EC80 agonist-evoked calcium signal; in the data active means activity change below about -50%; inconclusive means about -30% to -50%; inactive means above about -30%;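 also: stimulus is agonist 54-4 at its EC80 concentration; % is scaled to controls: 0 for no effect and ±100 for the full control effect; compound concentration not given in the record; the text of the record puts the active cut at -80%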
#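 Tet-induced TRPML1-DL cells loaded with Ca8 no-wash calcium dye were read kinetically on FDSS. Compound addition was followed by EC80 agonist 54-4 (4 uM final); inhibition was read over 110 s.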
# * hit, by the source's call; / = not tested or not shown. Random draw from the library; 1% or so of the library scored in one or more.
SMILES,D2 agonist,TRPML1 agonist,Six1-Eya2 inh,D2 potentiator,PINK1 modulator,TRPML1 inh
CCN(Cc1ccccc1)S(=O)(=O)c1c(C(=O)N2CCCC2)c(C)n(C)c1C,-3.3,-0.5,1,3,0.9%,-8
O=C(O)C1CCN(C(=O)c2ccc(S(=O)(=O)N3CCCCCC3)cc2)CC1,-0.8,-0.1,13,-10,-1.4%,-3
Cc1cc(C(=O)CN2C(=O)c3ccccc3S2(=O)=O)c(C)n1C(C)C,7.4,0.7,-9,-9,0.1%,0
COc1ccc(C(=O)N2CCC(C(=O)c3ccc(F)cc3)CC2)cc1,2.1,0.0,6,1,1.5%,-11
CCCOc1ccc(N2C(=O)CC(N3CCN(CCN=CC4=C(O)CC(C)(C)CC4=O)CC3)C2=O)cc1 (stereo unspecified),4.0,0.9,0,4,0.5%,-6
COc1ccc(C2C3=C(CCCC3=O)Nc3nc(SCc4ccc(C(=O)O)cc4)nn32)cc1OC (stereo unspecified),-2.5,-0.4,3,-5,0.5%,35
C=CCc1cccc2cc(C(=O)NC3=C(C#N)CCC3)c(=O)oc12,-3.5,-1.4,-4,-14,2.3%,-12
CCn1cc(C(=O)N(C)Cc2ccccc2)c(=O)c2cc(S(=O)(=O)N3CCc4ccccc4C3)ccc21,/,-1.4,/,/,0.3%,-14
COC(=O)C1(C(F)(F)F)N=C(C(F)(F)F)Nc2ccc(Cl)cc21 (stereo unspecified),2.3,1.9,1,-10,2.4%,-18
Cc1cc(Oc2ccc(C#N)cc2)nc(N2CCOCC2)n1,-7.3,-1.9,6,11,1.4%,2
NC(=O)C1CCCN(C(=O)Nc2cccc3ccccc23)C1 (stereo unspecified),-8.7,-1.0,28,-1,0.2%,-2
Cc1cc(NC(=O)CSc2nncn2-c2ccccc2)no1,-6.5,1.3,4,-56,2.2%,-8
Cn1c(=O)[nH]c(=O)c2c1nc(N1CCCCCC1)n2CCCSc1nc2ccccc2o1,-1.8,2.5,-6,-2,-0.6%,14
COc1ccc(NC(=O)CN(C)C(=O)CCCSc2nc3ccccc3[nH]2)cc1,-4.3,-0.2,-10,-9,-0.1%,-2
COc1cc(O)sc1C=Nc1ccc(Cl)cc1,-1.8,-1.4,-12,-1,1.0%,7

# Overlap with the part before: three entries; new compounds follow.
SMILES,D2 agonist,TRPML1 agonist,Six1-Eya2 inh,D2 potentiator,PINK1 modulator,TRPML1 inh
Cn1c(=O)[nH]c(=O)c2c1nc(N1CCCCCC1)n2CCCSc1nc2ccccc2o1,-1.8,2.5,-6,-2,-0.6%,14
COc1ccc(NC(=O)CN(C)C(=O)CCCSc2nc3ccccc3[nH]2)cc1,-4.3,-0.2,-10,-9,-0.1%,-2
COc1cc(O)sc1C=Nc1ccc(Cl)cc1,-1.8,-1.4,-12,-1,1.0%,7
C[C@@H](NC(=O)[C@@H]1Cc2ccccc2CN1)C(=O)NC1CCCC1,-2.9,1.7,6,-3,-0.5%,16
CCOC(=O)C(C)Oc1ccc(OCc2ccccc2)cc1 (stereo unspecified),0.8,3.3,36,2,0.3%,-1
CCOc1ncccc1C(=O)OCC(=O)NCCc1ccccc1,-0.8,0.9,6,-7,-1.1%,30
Cc1ccc(S(=O)(=O)N2C[C@]3(O)C[C@@H]4C(=O)N(c5ccccc5)C(=O)[C@@H]4C[C@]3(OC(=O)NCC3CCCCC3)C2)cc1,-9.4,0.3,1,-3,0.4%,1
COc1cc(S(=O)(=O)N(Cc2ccccc2)Cc2ccccn2)ccc1-n1cnnn1,-0.1,0.4,1,-8,/,10
CC(C)S(=O)(=O)c1csc(C(=O)NN)c1Cl,-1.4,0.0,2,4,3.2%,39
COCCCNC(=O)c1cccc(S(=O)(=O)N2CC3(C)CC2CC(C)(C)C3)c1 (stereo unspecified),1.2,4.6,-7,0,2.2%,-3
Cc1ccc(C(=O)c2cn[nH]c2-c2ccccc2O)cc1,-1.7,-0.8,0,-20,-0.2%,47
CS(=O)(=O)c1ccc(Cl)c(C(=O)O)c1,-1.9,0.1,1,-4,/,-1
Cc1ccc(S(=O)(=O)NNC(=O)Nc2cccc(F)c2)c(C)c1,-0.8,2.4,-2,0,3.0%,-12
COCCNC(=O)/C(C#N)=C/c1cc(C(C)C)c(OC)cc1C,-8.4,0.7,-23,-4,0.5%,-8
Cc1cccc(OCC(=O)NC(=S)Nc2ccc(S(=O)(=O)NC3CCCCC3)cc2)c1,-3.1,0.7,-8,-7,11%,2
Cc1cccc(C)c1NC(=O)Cn1c(=O)cc(C)c2c(C)nn(-c3cccc(Cl)c3C)c21,/,-0.3,/,/,0.0%,60
Cc1ccccc1CN1CCN(CCCc2ccccc2)C(CCO)C1 (stereo unspecified),4.9,2.0,0,-26,3.2%,-9
COc1ccccc1NC(=O)CN1C(=O)CCSc2ccccc21,/,1.3,/,/,-0.4%,-18

# Four compounds already listed, arranged by formula weight, ascending:
SMILES,D2 agonist,TRPML1 agonist,Six1-Eya2 inh,D2 potentiator,PINK1 modulator,TRPML1 inh
Cc1ccc(C(=O)c2cn[nH]c2-c2ccccc2O)cc1,-1.7,-0.8,0,-20,-0.2%,47
Cc1ccc(S(=O)(=O)NNC(=O)Nc2cccc(F)c2)c(C)c1,-0.8,2.4,-2,0,3.0%,-12
COc1cc(S(=O)(=O)N(Cc2ccccc2)Cc2ccccn2)ccc1-n1cnnn1,-0.1,0.4,1,-8,/,10
Cc1cccc(OCC(=O)NC(=S)Nc2ccc(S(=O)(=O)NC3CCCCC3)cc2)c1,-3.1,0.7,-8,-7,11%,2

# Continued.
SMILES,D2 agonist,TRPML1 agonist,Six1-Eya2 inh,D2 potentiator,PINK1 modulator,TRPML1 inh
CCOc1ccc(N2C(=O)CC(N3CCN(c4ccccc4OC)CC3)C2=O)cc1 (stereo unspecified),-3.8,-0.6,-3,-14,0.6%,-5
N/C(=N\OC(=O)COc1ccccc1Cl)c1ccccn1,0.0,2.5,1,6,3.2%,14
COC(=O)C1(O)CC(CC(C)C)=NN1C(=O)c1ccccc1 (stereo unspecified),-2.0,0.3,4,-19,-2.2%,-10
O=C(Cn1cc(S(=O)(=O)Cc2ccc(F)cc2)c2ccccc21)NCCc1ccccc1,/,1.1,/,/,0.7%,26
Cc1cc(Nc2ccc3c(c2)OCCO3)c2cccc(C)c2n1,2.2,0.1,-11,-11,1.2%,19
Cc1cc(C(=O)COC(=O)CC(NC(N)=O)c2ccc(Cl)cc2)c(C)n1C (stereo unspecified),-0.8,0.2,-12,-10,-0.4%,-1
Cc1ccc(NC(=O)Cc2ccsc2)cc1S(=O)(=O)N1CCOCC1,-1.1,0.2,-6,-22,0.0%,-1
COCCn1c(SCC(=O)Nc2cccc(OC)c2)nc2c(oc3ccccc32)c1=O,-0.7,2.4,-4,-2,5.1%,13
COc1ccc(C(=O)Nc2nncs2)c(OC)c1,0.6,0.9,-17,-1,2.5%,18
COc1ccc(S(=O)(=O)NCC(=O)NCc2cc(=O)n(C)c(=O)n2C)cc1,-4.2,-0.2,5,-5,0.9%,-5
COc1cc(C2NC(=O)NC(C)=C2C(=O)OC2CCCCC2)cc(Cl)c1O (stereo unspecified),-0.8,0.2,2,5,2.9%,4
O=[N+]([O-])c1cc(S(=O)(=O)N2CCCCC2)ccc1NCCCN1CCOCC1,0.1,-0.2,-1,-9,1.0%,8
O=[N+]([O-])c1ccc(S(=O)(=O)NNC(=S)NCCc2ccccc2)cc1,4.2,0.0,1,-15,-1.6%,-6
CCOc1ccc(C(=O)CCC(=O)N2CCN(c3ncccn3)CC2)cc1,-1.7,-0.5,-13,0,0.8%,-6
COc1cccc(/C=N/NC(=O)C(C)Cn2cnc3ccccc32)c1 (stereo unspecified),7.0,1.9,2,2,0.6%,-11

# Random excerpt: 2 records from the list.
SMILES,D2 agonist,TRPML1 agonist,Six1-Eya2 inh,D2 potentiator,PINK1 modulator,TRPML1 inh
Cc1ccc(S(=O)(=O)NNC(=O)Nc2cccc(F)c2)c(C)c1,-0.8,2.4,-2,0,3.0%,-12
CCN(Cc1ccccc1)S(=O)(=O)c1c(C(=O)N2CCCC2)c(C)n(C)c1C,-3.3,-0.5,1,3,0.9%,-8

# Further records:
SMILES,D2 agonist,TRPML1 agonist,Six1-Eya2 inh,D2 potentiator,PINK1 modulator,TRPML1 inh
O=C(Nn1cnnc1)c1ccc(Cl)c([N+](=O)[O-])c1,-2.5,1.8,43,-3,-1.1%,46
CCc1ccc(CNCc2c(C(=O)O)n(Cc3ccc(C)cc3)c3cc(C)ccc23)cc1,/,3.5,/,/,1.6%,4
COc1ccc(C(=O)N2CCN(C)C(=O)[C@@H]2C)cc1OC1CCN(C(C)C)CC1,1.4,-0.4,-1,-6,-1.0%,19
COc1ccccc1CNC(=O)CCc1c(C)c2cc3c(C)coc3cc2oc1=O,/,-0.8,/,/,-0.7%,28
Cc1cccc(NC(=O)CSc2ncnc3sc(C)c(C)c23)n1,-2.2,0.7,-6,5,1.0%,45
O=C(COc1ccc(F)cc1)c1ccc2c(c1)CCCC2,-1.6,1.0,75,-6,0.1%,4
CCOC(=O)NC(=O)/C(C#N)=N\Nc1ccc(Cl)cc1,-2.2,0.5,5,-24,-0.8%,-2
CC(C)(C)c1ccc(C(=O)NCc2ccccc2)cc1,-1.2,1.4,4,-34,3.5%,7
CCOc1cccc(OCCOCCOc2ccccc2C(C)=O)c1,-1.1,0.4,12,3,0.1%,2
CCOC(=O)COc1nc(C)cc(C(F)(F)F)c1C#N,-3.2,0.4,-13,-3,3.5%,0
CCn1c(C)nc2cc(C(=O)NNC(=O)[C@@H](NC(=O)c3cc(OC)cc(OC)c3)C(C)C)ccc21,-1.6,-0.4,-3,-22,-0.8%,14
C[C@H](CO)N1C[C@H](C)[C@H](CN(C)S(=O)(=O)c2ccc(Cl)cc2)OCc2cnnn2CCCC1=O,-1.8,-0.2,5,-5,0.3%,-13
O=c1[nH]c(NC2CCN(S(=O)(=O)c3ccccc3C(F)(F)F)CC2)nc2c1CCCC2,-2.4,4.1,-2,2,7.2%,85
Cc1cccc(NC(=S)NCc2ccc(F)cc2)c1,0.1,1.0,1,-10,-1.0%,40
COc1ccc2c(c1)c(=Cc1ccc(N(C)C)cc1)c1cc(-c3ccccc3)[n+](C)n12,-4.5,1.9,-69*,-24,-1.3%,2
Cn1c(NC(=O)CCC2CCCCC2)cc(=O)n(C)c1=O,-2.1,0.1,1,2,8.5%,-10
Cc1ccc(NC(=O)/C=C\C(=O)N(c2ccc(C(C)C)cc2)C(C(=O)NCc2ccco2)c2ccc(F)cc2)cc1 (stereo unspecified),/,0.8,/,/,3.1%,-16
COc1ccc(Cc2nnc(NC(=O)C3CC(=O)N(c4ccc(OC)cc4)C3)s2)cc1 (stereo unspecified),-0.6,-0.3,-25,5,0.3%,4
COC(=O)CCC(=O)NNC(=O)c1ccc(Br)cc1,0.4,-0.1,1,-11,2.5%,-11
O=C(C(=O)N1CCCC1)c1c(-c2ccccc2)[nH]c2ccccc12,-4.9,-0.5,-3,-18,-0.6%,3
CNC(=O)C1=C(C)NC(=S)NC1c1cccs1 (stereo unspecified),2.3,1.2,2,-4,-2.0%,-7

# High-throughput results (PubChem)
